High-throughput results deposited in PubChem BioAssay by Broad Institute.
T cruzi repl – inhibitors of intracellular T. cruzi growth, primary screen, luminescence, NIH3T3 host cells; T. cruzi beta-gal in NIH3T3, 90 h; inhibition, % (test concentration not listed); 1.4% of 300,000 active; AID 1885, 2009;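 active means mean inhibition across valid replicates above about 55%, limit read from the data; inconclusive means mean below that limit but half or more replicates reach it; inactive means mean below it, under half of replicates reach it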;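 further: signal also drops with host cell toxicity which is not excluded here; 0% = plate median of DMSO wells and 100% = zero luminescence signal; higher percent means less beta-gal luminescence so fewer parasites; stock transfer was 50 nL into about 50 µL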
FGF22 binding – binders of human FGF22 protein, primary screen, FGF22 synaptogenesis inhibitor project, biophysical, thermal shift, single point | AID 651658, 2012 | 1.5% of 340,000 active | calls only at 9.99 µM | recombinant FGF22 thermal shift, SYPRO orange fluorescence; percent of sucrose octasulfate shift, DMSO zero | Fibroblast growth factor 22 (Homo sapiens), Q9HCT0;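 active means melting point raised past a set limit in the mean and every replicate; inconclusive means no clear call; three in four hits are not shown here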
Target sequence (Q9HCT0 whole entry, looked up): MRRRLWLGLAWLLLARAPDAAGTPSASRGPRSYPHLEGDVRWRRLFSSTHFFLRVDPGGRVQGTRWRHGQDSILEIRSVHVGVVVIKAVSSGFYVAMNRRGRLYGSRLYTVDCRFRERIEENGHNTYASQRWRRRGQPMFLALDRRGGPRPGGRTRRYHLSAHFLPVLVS
Calb FLC – C. albicans growth inhibition with fluconazole, primary screen, CaCi-2 strain, Alamar Blue fluorescence. C. albicans CaCi-2 (fluconazole-resistant clinical isolate) + fluconazole, 48 h. growth inhibition, % (no concentration beside the values). 0.57% of 300,000 active. AID 1979, 2009;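 active means most replicates above 75%; inconclusive means exactly half above 75%; inactive means most below 75%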;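 further: all wells also contain fluconazole at 8 µg/ml as a sub-toxic cotreatment; 0% = median of DMSO wells and 100% = median of geldanamycin control wells; wells of about 8 µL received 7.5 nL stock; the first replicate is given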
ALR inh – inhibitors of human ALR sulfhydryl oxidase, primary screen, biochemical, H2O2 detection, HRP-luminol luminescence, single point; FAD-linked sulfhydryl oxidase ALR (Homo sapiens), P55789; purified ALR, DTT oxidation; inhibition, % (no concentration beside the values); 3.8% of 290,000 active; AID 485317, 2010;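 active means mean and each replicate at 75% or more; inconclusive means only one of the two met; inactive means neither met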;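 further: stock transfer was 7.5 nL into about 7.5 µL; 0% = neutral wells and 100% = wells with inactivated enzyme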
Target sequence (P55789 whole entry, looked up): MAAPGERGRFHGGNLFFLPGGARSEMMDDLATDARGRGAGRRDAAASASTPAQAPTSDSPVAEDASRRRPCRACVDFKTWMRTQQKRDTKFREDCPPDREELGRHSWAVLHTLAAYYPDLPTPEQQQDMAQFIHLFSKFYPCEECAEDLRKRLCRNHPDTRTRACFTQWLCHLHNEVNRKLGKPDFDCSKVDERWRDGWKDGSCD
Beta cell apopt – inhibitors of cytokine-induced beta cell apoptosis, primary screen, luminescence; INS-1E cytokine-induced death, ATP luminescence, 48 h; percent of positive-control rescue, neutral wells zero; protection from apoptosis, % (concentration not given with the values); AID 435005, 2010; 0.8% of 300,000 active;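 active means all replicates at 75% or more, or half of them and the mean; inconclusive means half reach 75% but not the mean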;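 further: 0% = cytokine-treated negative control wells and 100% = positive control rescue; higher means more ATP so stronger rescue from cytokine killing; wells of about 40 µL received 100 nL stock; the first replicate is given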
rRNA inh HTS – reduced GFP signal of wild-type E. coli, primary screen, bacterial rRNA inhibitor project, GFP/RFP fluorescence, OD600, single point; 1.6% of 350,000 active; E. coli WT GFP vs humanized-ribosome RFP mutants, 24 h; stronger effect = lower value; DMSO median 0, no signal -100; GFP signal change (wild-type ribosome), % (concentration not given with the values); AID 720706, 2013;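 active means significant combined selectivity score with lowered wild-type GFP, culture density cut under 30%, mutant RFP and density less affected; inactive means any of these conditions unmet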; further: one replicate is shown; some compounds called inactive have numbers as strong as hits
AF4-AF9 inh – inhibitors of AF4 peptide binding to AF9, primary screen, biochemical, AlphaScreen, biotin-AF4 peptide, FLAG-AF9, single point | 0.47% of 350,000 active | inhibition, % at 10 µM;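 active means every replicate reaching a set inhibition limit, whatever the replicate mean, cut at about 25% in these data; inconclusive means mean inhibition reaches that limit but some replicates miss it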;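 further: 0% = plate neutral control median and 100% = total signal loss; the record names both 10 and 1 µM as test concentration; the first replicate is given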
Target sequence (P42568 whole entry, looked up): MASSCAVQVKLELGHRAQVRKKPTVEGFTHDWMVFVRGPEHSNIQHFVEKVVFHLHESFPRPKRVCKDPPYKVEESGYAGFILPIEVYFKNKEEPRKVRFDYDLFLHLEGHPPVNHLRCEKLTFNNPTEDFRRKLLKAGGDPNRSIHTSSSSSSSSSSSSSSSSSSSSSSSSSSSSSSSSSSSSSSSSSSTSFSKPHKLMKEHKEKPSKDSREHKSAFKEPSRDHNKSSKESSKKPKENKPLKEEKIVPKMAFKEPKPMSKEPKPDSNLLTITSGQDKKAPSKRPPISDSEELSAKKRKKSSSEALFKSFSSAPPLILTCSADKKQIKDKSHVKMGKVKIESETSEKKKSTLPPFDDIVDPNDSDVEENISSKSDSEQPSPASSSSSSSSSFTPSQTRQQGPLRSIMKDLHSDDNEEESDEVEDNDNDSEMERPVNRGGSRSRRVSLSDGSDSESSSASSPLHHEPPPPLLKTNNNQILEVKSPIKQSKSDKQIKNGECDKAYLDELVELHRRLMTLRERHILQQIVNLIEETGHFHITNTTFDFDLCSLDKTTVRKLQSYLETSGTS
RanGTP-Imp inh – inhibitors of RanGTP-importin-beta interaction, primary screen, biochemical, FRET, CFP-Ran, YFP-importin-beta, homogeneous | AID 2216, 2009 | inhibition, % (no concentration beside the values) | 1.1% of 300,000 active | cell-free CFP-Ran/YFP-importin-beta FRET ratio | Ran GTPase (GTP-bound) - importin-beta complex;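 active means most replicates above 15%; inconclusive means exactly half above 15%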;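 further: 0% = DMSO wells and 100% = Ran loaded with GDP instead of GTP; wells of about 40 µL received 100 nL stock; the first replicate is given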
rRNA inh HTS OD600 – second read-out of rRNA inh HTS, no call of its own (marks repeat the call); OD600 change, %; measured here: OD600 growth;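 optical density of the mix in the first replicate; 0 = DMSO median and -100 = no signal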
rRNA inh HTS RFP – further read-out of rRNA inh HTS, marked with its call; RFP signal change, %; measured here: RFP humanized mutant strains;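 first replicate; 0 = DMSO median and -100 = no signal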
Starred values were filed as active, the others as inactive; i = inactive; ? = inconclusive; nt = no result given. Not all compounds are listed; rates above refer to the full screens.

SMILES | T cruzi repl | FGF22 binding | Calb FLC | ALR inh | Beta cell apopt | rRNA inh HTS | rRNA inh HTS OD600 | rRNA inh HTS RFP | AF4-AF9 inh | RanGTP-Imp inh
O=C(NCC(c1ccco1)N1CCCC1)c1ccc(Cl)cc1 (stereo not drawn) | 36 | nt | 5 | 4 | 1 | nt | nt | nt | nt | 1.0
COC(=O)c1cc(C(=O)NNC(=O)c2ccc3c(c2)OCO3)cc([N+](=O)[O-])c1 | nt | i | nt | -12 | 16 | 19 | 18 | -1.0 | -1.7 | nt
C/C(=N/NC(=O)c1ccc(C(C)(C)C)cc1)c1cccnc1 | -5 | i | -23 | 7 | 0 | -1 | 7 | 1.2 | -3.1 | -2.6
COc1ccc(-c2cc(N)n(S(=O)(=O)Cc3ccccc3)n2)c(OC)c1 | 1 | i | 5 | nt | -7 | 9 | 8 | 1.9 | -0.3 | -1.5
O=C(CNC(=O)C1COc2ccccc2O1)N/N=C\c1ccc(Cl)cc1 (stereo not drawn) | 7 | i | 7 | nt | -2 | 2 | -4 | -0.2 | -2.5 | 4.2
COc1ccc(OC)c(S(=O)(=O)N2CCCCC2C(=O)O)c1 (stereo not drawn) | -18 | i | -3 | -4 | 4 | 9 | -1 | -0.4 | -19 | 0.0
O=C(Nc1ccc(Cl)c(S(=O)(=O)N2CCCCC2)c1)c1cccnc1 | nt | i | nt | -5 | -2 | -14 | -12 | 2.4 | 1.7 | nt
CCCCc1ccc(CC(=O)O)cc1 | 3 | nt | 17 | -12 | 1 | nt | nt | nt | nt | -2.2
CC1CCCCN1CCCNC(=O)Cn1c(=O)c2cccn2c2ccccc21 (stereo not drawn) | 7 | i | -25 | -6 | -5 | 11 | 13 | -2.3 | 2.7 | -0.3
COc1ccc(-c2nnc(N3CCCCC3)c3ccccc23)cc1 | 4 | nt | -5 | 5 | 7 | nt | nt | nt | nt | 2.5
Cc1onc(-c2ccccc2)c1C(=O)NC(C)C | -4 | i | 0 | 2 | nt | 4 | 5 | 12 | -2.4 | 0.8
CC(=O)c1c(N2CCN(c3ccc(F)cc3)CC2)nc(=S)n(Cc2ccccc2)c1C | 19 | i | 8 | 6 | nt | 0 | -5 | 3.5 | ? | 12
Cc1cccc(OCc2nnc(SCC(=O)NCC3CCCO3)n2C)c1 (stereo not drawn) | 0 | i | -11 | -9 | -4 | 12 | 5 | -5.2 | -0.7 | 0.4
CSC1=NCCN1C(=O)C(C)(C)Oc1ccc(Cl)cc1 | 6 | i | -5 | -2 | -1 | -4 | -11 | 0.3 | 0.3 | -2.0
O=C(NCc1ccccn1)C(=O)NCC1OCCN1S(=O)(=O)c1ccc(Br)cc1 (stereo not drawn) | 3 | i | -9 | -20 | 0 | 2 | 5 | -2.7 | 0.2 | 0.0
CC(=O)C1=NN(c2ccccc2)C(c2ccc3c(c2)OCO3)N1c1ccc(N2CCOCC2)cc1 (stereo not drawn) | 25 | nt | -20 | nt | 12 | nt | nt | nt | nt | 3.9
Cc1ccc(CNC(=O)C2CCCC2)cc1 | -5 | i | 5 | -5 | nt | 16 | -1 | 0.3 | 0.2 | 0.4
CCCC(=O)Nc1ccc(C(=O)COC(=O)C2CC2C)cc1 (stereo not drawn) | nt | i | nt | 27 | -4 | 2 | 8 | -2.4 | -0.6 | nt
CCOc1ccc(S(=O)(=O)Nc2ccc(F)cc2)c(C)c1C | ? | nt | 40 | -19 | 12 | nt | nt | nt | nt | 6.0
CC(C(=O)Nc1ccccc1-c1ccccc1)N1CCN(S(=O)(=O)c2ccccc2)CC1 (stereo not drawn) | 18 | i | 5 | -14 | 0 | -10 | 3 | 4.6 | 5.3 | ?
Cc1ccc([N+](=O)[O-])cc1NC(=O)c1c(-c2ccccc2)noc1C | 9 | i | -21 | 1 | -3 | 3 | 2 | -1.2 | -0.4 | -2.7
CCC(C)C(=O)Nc1cc(C(=O)OC)ccc1C(=O)OC (stereo not drawn) | -5 | i | -2 | -13 | -1 | -17 | -15 | -3.7 | 3.7 | 4.6
CCc1nc2ccc(F)cc2c(C(=O)NC2CCCCC2C)c1C (stereo not drawn) | 2 | nt | 6 | -6 | -4 | -4 | -11 | -1.3 | nt | 0.9
Cc1ccc(N2C(=O)CC(NNc3nc4ccccc4s3)C2=O)cc1 (stereo not drawn) | -6 | nt | 2 | 3 | -5 | nt | nt | nt | nt | -3.2
COc1ccc(CNc2nccs2)cc1 | 4 | i | -12 | -9 | -2 | 1 | 3 | -2.1 | -4.9 | -2.9
SMILES | T cruzi repl | FGF22 binding | Calb FLC | ALR inh | Beta cell apopt | rRNA inh HTS | rRNA inh HTS OD600 | rRNA inh HTS RFP | AF4-AF9 inh | RanGTP-Imp inh
CN(C)/C=C/C(=O)c1ccc(N2CCN(c3ncc(C(F)(F)F)cc3Cl)CC2)cc1 | -5 | nt | 21 | -2 | 0 | nt | nt | nt | nt | 0.5
COC(=O)c1cccc(NS(=O)(=O)c2ccc(OC)c(C(=O)N3CCOCC3)c2)c1C | 0 | i | 7 | nt | 8 | 2 | 1 | -4.0 | 0.2 | 2.9
CCC(C)NC(=O)c1ccccc1C(=O)NC(C)CC (stereo not drawn) | 5 | nt | -24 | -5 | -3 | nt | nt | nt | nt | 2.4
COc1ccc(CCNC(=O)Cc2ccc(Cl)cc2)cc1OC | 2 | i | 6 | nt | -3 | 4 | 7 | 0.6 | 4.1 | 1.7
CCC(C)NS(=O)(=O)c1ccc(NS(=O)(=O)c2ccccc2[N+](=O)[O-])cc1 (stereo not drawn) | -16 | i | -10 | 69 | -4 | 18 | 7 | -1.5 | -2.4 | -0.8
O=C1C2C3C=CC(C3=C3CCCCC3)C2C(=O)N1c1ccccc1 (stereo not drawn) | 11 | nt | nt | 0 | 3 | nt | nt | nt | nt | -2.4
NC(=O)CN1CCN(CCN2C(=O)c3cccc4cccc(c34)C2=O)CC1 | -9 | i | -3 | -4 | 1 | -10 | -8 | -3.5 | 1.3 | 4.2
CCn1cc(Cl)c(C(=O)N2N=C3/C(=C/c4cccs4)CCCC3C2c2cccs2)n1 (stereo not drawn) | 27 | nt | -1 | -4 | -7 | nt | nt | nt | nt | 1.9
Cc1sc(NC(=O)c2ccco2)c(CN2CCN(c3ccccc3)CC2)c1C | 39 | nt | 26 | 2 | -5 | nt | nt | nt | nt | -1.2
CCOc1ccc(NC(=O)c2cc(C)nc3ccccc23)cc1 | 2 | nt | -3 | -7 | 7 | -4 | -3 | 1.8 | -0.5 | -3.0
Nc1nc(CSc2nc3ccccc3[nH]2)cs1 | nt | nt | -16 | 36 | 5 | nt | nt | nt | nt | 5.2
CN1C(=O)C(Cc2cnc[nH]2)NC1=S (stereo not drawn) | 5 | i | 10 | -1 | -5 | 5 | 13 | 0.2 | -2.8 | 2.5
CCOC(=O)c1c(C)nc2ncccn12 | -4 | nt | -5 | -2 | -4 | nt | nt | nt | nt | -3.1
Cc1ccc(NC(=O)c2nnn(CC(=O)Nc3ccccc3)c2N)cc1C | 17 | nt | -3 | -2 | -3 | nt | nt | nt | nt | -2.3
CC(C)OCCCNC(=O)c1ccc(NC(=O)C2=CSCCO2)cc1 | -9 | i | -1 | 0 | nt | 0 | 1 | -1.1 | 4.1 | 2.0
O=C(c1ccccc1)c1nn(-c2ccccc2)c(=O)cc1C(F)(F)F | -9 | nt | 4 | 2 | nt | nt | nt | nt | nt | -3.0
COn1cnnc1-c1ccccc1 | -10 | nt | -1 | -20 | -3 | nt | nt | nt | nt | -6.9
COc1ccc(C(=O)NCc2nc(C)c(C)s2)cc1OC1CCN(C(C)C)CC1 | -2 | i | 1 | 2 | 0 | 5 | 0 | -1.4 | 2.2 | -4.3
CCOc1ccc(NC(=S)NC(=O)c2cncc(Br)c2)cc1 | -1 | i | 23 | -19 | -3 | 3 | 0 | 1.6 | 0.8 | -2.1
O=C(CSc1ncnc2sccc12)Nc1ccccc1F | 2 | i | 0 | -1 | -6 | 1 | -20 | -0.6 | 2.2 | 3.5
CSCC(=O)N1CCC(CCC(=O)NC2CC2)CC1 | -9 | i | -4 | -3 | 0 | 18 | 12 | -1.7 | -0.4 | 0.6
CCN(CC)C(=O)c1sc(NC(=O)c2cccc([N+](=O)[O-])c2)c(C#N)c1C | -4 | i | 1 | 14 | 29 | 21 | 9 | 1.4 | 2.8 | 1.2
O=C(NCCc1ccccn1)c1ccc(OC2CCN(CCc3ccccc3)CC2)cc1 | 16 | i | -4 | -9 | -8 | 9 | 3 | 3.5 | 3.2 | 2.3
Cc1ccc(N(Cc2cc(=O)[nH]c3ccccc23)C(=O)c2ccco2)cc1 | 6 | nt | ? | -20 | 2 | nt | nt | nt | nt | 7.7
CC(C)c1nnc(NC(=O)CSc2nc3ccccc3s2)s1 | -5 | nt | 10 | 74 | -2 | nt | nt | nt | nt | nt
O=C(NCc1cccs1)Nc1cc(Cl)ccc1Cl | -1 | i | 6 | -2 | 9 | nt | nt | nt | -7.2 | -0.1
COc1ccc(-n2cnc3scc(-c4ccccc4)c3c2=O)cc1 | -12 | i | 6 | -32 | -5 | -21 | -20 | -6.8 | -6.3 | 4.7
CCOc1ccc(N(CC(=O)Nc2cc(Cl)ccc2C)S(C)(=O)=O)cc1 | -3 | i | 19 | -7 | -1 | -3 | 4 | 1.4 | -4.9 | 0.0
Cc1ccc(C(=O)N2CCCC2)cc1S(=O)(=O)Nc1ccccc1 | 5 | nt | -3 | -2 | -5 | nt | nt | nt | nt | 5.1

One compound at a time (already shown):
Entry for NC(=O)CN1CCN(CCN2C(=O)c3cccc4cccc(c34)C2=O)CC1 → T cruzi repl = -9; FGF22 binding = i; Calb FLC = -3; ALR inh = -4; Beta cell apopt = 1; rRNA inh HTS = -10; rRNA inh HTS OD600 = -8; rRNA inh HTS RFP = -3.5; AF4-AF9 inh = 1.3; RanGTP-Imp inh = 4.2
Entry for CCC(C)NC(=O)c1ccccc1C(=O)NC(C)CC (stereo not drawn) → T cruzi repl = 5; FGF22 binding = nt; Calb FLC = -24; ALR inh = -5; Beta cell apopt = -3; rRNA inh HTS = nt; rRNA inh HTS OD600 = nt; rRNA inh HTS RFP = nt; AF4-AF9 inh = nt; RanGTP-Imp inh = 2.4

Exported with tabs: part of the list above.
SMILES	T cruzi repl	FGF22 binding	Calb FLC	ALR inh	Beta cell apopt	rRNA inh HTS	rRNA inh HTS OD600	rRNA inh HTS RFP	AF4-AF9 inh	RanGTP-Imp inh
CCOc1ccc(S(=O)(=O)Nc2ccc(F)cc2)c(C)c1C	?	nt	40	-19	12	nt	nt	nt	nt	6.0
CC(C(=O)Nc1ccccc1-c1ccccc1)N1CCN(S(=O)(=O)c2ccccc2)CC1 (stereo not drawn)	18	i	5	-14	0	-10	3	4.6	5.3	?
